Source: PubChem BioAssay (several laboratories)
Mtb H37Rv: M. tuberculosis H37Rv growth inhibitors, H37Rv strain (AID 1626); actives 0.95% (n = 220,000); inhibition, % at 10 µM, or IC50 in µM where a hit was titrated; M. tuberculosis H37Rv growth inhibition; higher % means a stronger effect;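 active means confirmed in a dose series; inconclusive means inhibition above 80% but not taken into the dose series; inactive means below 80% or under 30% at every dose of the series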;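 further: bacteria incubated seven days before Alamar blue readout; 0% = bacteria only wells and 100% = bacteria with antibiotic wells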
YopH PTP inh: YopH tyrosine phosphatase inhibitors, primary screen, biochemical, fluorescence Ex485/Em525. actives 0.16% (n = 140,000). inhibition, %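 (about 10 µM by stock and volumes)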. AID 898, 2007. YopH tyrosine phosphatase [Yersinia enterocolitica];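 active means inhibition of 50% or more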;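 further: controls were vehicle for no effect and minimum signal wells for full effect; inactives centre near -20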
Arbovirus anti: antivirals against arbovirus infection, primary screen, cell-based, full library, 10K replicate subset; arbovirus infection cell-based antiviral screen; inhibition, % at 10 µM; actives 0.37% (n = 200,000); AID 1251, 2008;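 active means inhibition from about 30%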;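 further: bluetongue infection of BSR cells; cell survival read as ATP light after 72 h; 0% = infected wells without compound and 100% = uninfected wells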
RecA intein inh: Mtb RecA intein splicing inhibitors, primary screen, biochemical, fluorescence, HTS; Protein RecA (Mycobacterium tuberculosis (strain ATCC 25618 / H37Rv)), P9WHJ3; cell-free RecA intein splicing; inhibition, %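 (about 9 µM by stock and volumes)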; actives 0.75% (n = 290,000); AID 2221, 2009; in the data active means inhibition above about 30%; inconclusive means no clear call, values can overlap the other calls;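 further: 0% = vehicle wells and 100% = reference inhibitor control wells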
Target sequence (P9WHJ3 whole entry, looked up): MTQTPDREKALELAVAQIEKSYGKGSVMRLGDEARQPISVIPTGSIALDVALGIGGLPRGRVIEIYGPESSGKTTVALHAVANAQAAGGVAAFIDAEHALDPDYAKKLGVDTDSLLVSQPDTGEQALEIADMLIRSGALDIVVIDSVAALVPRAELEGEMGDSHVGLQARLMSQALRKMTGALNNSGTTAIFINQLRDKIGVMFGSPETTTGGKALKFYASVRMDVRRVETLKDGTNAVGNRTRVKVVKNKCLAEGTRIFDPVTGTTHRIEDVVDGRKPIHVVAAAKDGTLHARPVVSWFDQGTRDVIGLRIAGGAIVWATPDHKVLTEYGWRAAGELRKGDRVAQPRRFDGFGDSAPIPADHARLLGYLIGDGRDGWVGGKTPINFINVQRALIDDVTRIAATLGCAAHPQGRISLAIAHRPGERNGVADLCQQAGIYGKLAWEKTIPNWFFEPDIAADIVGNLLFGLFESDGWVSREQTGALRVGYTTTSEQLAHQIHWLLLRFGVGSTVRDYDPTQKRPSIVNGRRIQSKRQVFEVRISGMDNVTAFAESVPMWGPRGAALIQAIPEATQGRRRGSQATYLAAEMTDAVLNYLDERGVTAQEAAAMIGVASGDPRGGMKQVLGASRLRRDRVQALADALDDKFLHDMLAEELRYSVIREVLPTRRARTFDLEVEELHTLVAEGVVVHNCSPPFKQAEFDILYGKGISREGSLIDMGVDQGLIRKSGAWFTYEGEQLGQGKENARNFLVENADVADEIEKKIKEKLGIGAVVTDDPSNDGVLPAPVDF
Mtb betalactam: beta-lactam sensitization of Mtb H37Rv, H37Rv; M. tuberculosis H37Rv growth with meropenem, percent inhibition; hits of this screen are not shown here; inhibition, % at 25 µM; actives 0.27% (n = 330,000);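 active means about 74% or more and at least 40 points above the plate without the antibiotic, then above 30% in a dose series; inconclusive means first-round hits that could not be retested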;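 further: growth measured after seven days incubation then overnight dye step; 0% = bacteria only wells and 100% = bacteria with antibiotic; twin plates without the antibiotic show which effects depend on it; some results filed as inactive read as strong as hits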
* hit, by the source's call; ? = inconclusive; . = no result given.

SMILES	Mtb H37Rv	YopH PTP inh	Arbovirus anti	RecA intein inh	Mtb betalactam
CC(NC(=O)c1cc2ccccc2oc1=O)c1ccccc1 (centres undefined)	.	.	.	-1.4	-6
CCOc1c2ccc(C(=O)NCc3ccc(OC(F)(F)F)cc3)cc2nn1CC	-2%	-31	-4	-0.1	18
CC(NC(=S)N1CCOCC1)c1ccccc1 (centres undefined)	0%	-36	5	-1.1	-8
Nc1c(C(=O)NC2CC2)sc2nc3c(c(-c4ccco4)c12)CC/C3=C/c1ccco1	0%	10	6	.	0
CNc1c(N=Cc2cccnc2)c(=O)n(C)c(=O)n1C	-8%	29	3	-4.4	0
CCC1=C2CC[C@H]3C(=O)N(c4ccccc4)C(=O)[C@H]3[C@H]2[C@@]2(C)C(=NCC(=O)OC)OC(=O)N2C1=O	-7%	.	.	.	-7
CCOP(=O)(OCC)Oc1cc(C)c(N(C)C)c(C)c1	-5%	.	.	1.5	-2
CCC(NC(=O)NCCCn1ccnc1)(C(F)(F)F)C(F)(F)F	3%	-43	5	0.9	-14
CCC(=O)c1ccc(OCC(O)CN2CCN(c3cccc(C(F)(F)F)c3)CC2)cc1 (centres undefined)	?	-17	-2	3.9	99
COc1cccc(C(=O)Nc2nnc(-c3cccs3)s2)c1	9%	6	-4	-2.0	28
COc1ccc(-n2c(=S)[nH]c3sc4c(c3c2=O)CCc2ccccc2-4)cc1	-1%	-10	4	3.2	-7
O=C(c1ccccc1F)N1CCN(C2CCC(c3ccccc3)CC2)CC1 (centres undefined)	-2%	.	-4	0.7	2
O=C(O)Cn1c(=O)c2c3c(sc2n(Cc2ccccc2F)c1=O)CCCC3	.	.	.	-1.7	-2
COc1ccccc1N1CCN(C(=O)CSc2nc(N)cc(=O)[nH]2)CC1	-5%	-11	0	-2.2	-9
COc1ccc(OCc2cc(C(=O)NCC3CCOCC3)no2)c(Cl)c1	.	.	.	3.3	-2
Cc1cc(Oc2ccc3ccccc3c2)nc(SCC(=O)c2ccccc2)n1	13%	-26	12	2.4	6
COc1ccccc1CNC(=O)c1nn(-c2ccc(C)cc2)c(=O)c2c1c1ccccc1n2C	-7%	-16	-18	0.7	-10
COC(=O)c1ccc(C(=S)N2CCOCC2)cc1	.	-22	2	-1.1	-22
Cc1ccc(NC(=O)CCc2ccc(S(=O)(=O)N3CCOCC3)cc2)c(C)c1	-4%	-1	1	-2.1	3
C/C(=N\Nc1ccc(S(=O)(=O)N2CCOCC2)cc1[N+](=O)[O-])C(C)C	5%	.	-1	1.1	8
CC1Sc2ccc(C(=O)Nc3ccc(S(=O)(=O)N(C)C)cc3)cc2NC1=O (centres undefined)	.	.	.	3.1	1
O=C(CSc1ncnc2c1cnn2CCc1ccccc1)Nc1ccc(F)cc1	3%	2	3	.	.
O=C(c1cccs1)c1cn(Cc2ccccc2Cl)c2ccccc12	-8%	-8	1	-4.9	9
Cn1c(-c2ccccc2)cnc1NCc1ccccc1	.	.	.	-4.5	-6
CCCCn1c(N)c(N(Cc2ccccc2OC)C(=O)CCC(C)C)c(=O)[nH]c1=O	.	.	.	1.2	5
CCC(=O)Nc1c(-c2cccs2)c(=O)c2ccccc2n1C	-7%	-38	2	1.1	12
COc1ccccc1NC(=O)CSc1nnnn1-c1ccc2c(c1)OCO2	-3%	-14	-1	-2.0	5
O=C(NCC(c1ccc(F)cc1)N1CCOCC1)c1cccnc1Sc1ccccc1 (centres undefined)	.	.	.	-2.4	-7
COc1ccc(C(=O)N(C)C2(C)CCS(=O)(=O)C2)cc1OC (centres undefined)	.	.	.	-2.1	-10
CCc1ccc(OCCCC(=O)Nc2ccc(N3CCCCC3)cc2)cc1	-1%	-23	0	2.9	4
CN1C(=O)C(CC(=O)Nc2ccc3c(c2)Cc2ccccc2-3)N(C)C1=O (centres undefined)	5%	42	-3	3.0	-15
COC(=O)c1sc(-c2ccc(C(C)(C)C)cc2)cc1NC(=O)CSCC(=O)O	-1%	.	.	10	48
COCCC(=O)N1CCC(Oc2ccc(C(=O)NCc3csc(C)n3)cc2)CC1	.	.	.	2.2	-3
COc1ccc2cc(C(=O)C3CCCN(C(=O)c4cc(=O)n(C)c(=O)n4C)C3)ccc2c1 (centres undefined)	2%	.	4	2.3	-4
CCN(C(=O)Cn1c(=O)n2nc(CCn3nc(C)cc3C)nc2c2ccccc21)c1cccc(C)c1	0%	-50	2	.	-7
CCC1=NN2C(=N)/C(=C\c3cccn3-c3ccc(OC)cc3)C(=O)N=C2S1	10%	.	30	5.9	-1
O=C(CN1CCN(S(=O)(=O)N2CCOCC2)CC1)Nc1ccc(Cl)c(Cl)c1	.	.	.	-1.7	2
O=C(COC(=O)c1ccco1)Nc1ccccc1	-9%	-24	14	-1.0	4
Cc1ccc(-c2ccc(/C=C(\C#N)C(N)=S)o2)c([N+](=O)[O-])c1	-1%	.	-11	.	.
O=C(CCNC(=O)c1ccc(Cl)cc1)Nc1ccc(F)cc1F	20%	-8	0	0.7	19
COc1ccc(Nc2ccc(S(=O)(=O)N3CCCCC3)cc2[N+](=O)[O-])cc1OC	7%	-1	-2	12	-2
CN(C(=O)/C=C/c1ccco1)c1ccccc1C(=O)O	2%	.	12	-1.6	-5
COc1ccc(/C=N/NC(=O)CN(CCc2ccccc2)S(=O)(=O)c2ccc(NC(C)=O)cc2)cc1OC	11%	-12	-11	2.3	3
COC(=O)NCC(c1ccco1)N1CCN(c2ccc(OC)cc2)CC1 (centres undefined)	40%	.	6	-9.0	-11
COCCN(C(=S)Nc1ccccc1OC)C1CCN(C(C)C)CC1	-7%	.	-3	-0.2	0
O=C(NCCCN1CCOCC1)c1cccc(NC(=O)c2ccccc2)c1	.	.	.	-0.3	-1
Nc1nc2ccccc2n1CCN1CCCC1	-2%	-8	9	-2.7	-8
C=CCn1c(SCc2nc3scc(-c4ccccc4)c3c(=O)[nH]2)nnc1-c1ccccc1F	1%	-23	7	-1.7	9
OC(CNCc1ccc(Cl)cc1)COc1ccccc1 (centres undefined)	.	.	.	1.9	-11
O=C(NC1CCCCC1)NC12CC3CC(CC(C3)C1)C2	-1%	.	2	.	5
O=C(NNC(=O)c1cccc(O)c1)Nc1ccc([N+](=O)[O-])cc1	1%	.	4	1.3	-6
COc1ccc(NC(=O)c2c(C)nn(-c3ccccc3)c2Cl)cc1	.	.	.	-1.4	3
O=C(O)C1C2C=CC(CC2)C1C(=O)O (centres undefined)	-7%	-24	10	-0.5	0
C/C(=N\OCC(=O)NC12CC3CC(CC(C3)C1)C2)c1cc2ccccc2o1	24%	-29	-16	20	63
O=C(NC12CC3CC(CC(C3)C1)C2)c1cc(F)c(F)cc1Cl	.	.	.	-1.7	8
COc1ccc(CNC(=O)CN2C(=O)CSc3ccc(S(=O)(=O)N4CCOCC4)cc32)c(OC)c1	.	.	.	-5.1	-1
O=C1[C@H](O)[C@@H](O)C(=O)N1Cc1ccccc1	.	.	.	-2.2	5
CSC[C@H](NC(=O)COc1cc2c(c3oc(=O)cc(C)c13)CCC(C)(C)O2)C(=O)O	.	.	.	0.3	-3
COC(C[C@H]1O[C@@H]1[C@@H](O)[C@H](C)OCc1ccccc1)OC	-10%	.	.	-0.5	.
COc1ccccc1-c1nnn(CC#N)n1	6%	-32	3	0.5	-7

Further entries follow.
SMILES	Mtb H37Rv	YopH PTP inh	Arbovirus anti	RecA intein inh	Mtb betalactam
CCNC(=S)Nc1cc(OCC)c(NC(=O)c2ccco2)cc1OCC	6%	-22	-12	-0.3	-3
CCOC(=O)N1CCC(Nc2c(NCCCN(CC)CC)c(=O)c2=O)CC1	1%	-53	0	0.2	-2
CSc1nc(-c2ccccc2)nn1C(=O)c1ccc(Cl)cc1	-6%	-26	6	57*	33
COc1ccccc1CCC(=O)OCC(=O)Nc1c(Br)cc(C)cc1Br	.	.	.	-3.2	-5
Cn1c(CSCc2ccc(Cl)cc2Cl)n[nH]c1=S	4%	.	-2	-2.0	-4
Cn1ccnc1SCc1nc2c(cnn2-c2ccccc2)c(=O)[nH]1	-2%	-4	1	1.2	-2
COc1cccc(CC2(CO)CCCN(Cc3cc(F)ccc3-n3cccn3)C2)c1 (centres undefined)	2%	.	-7	2.7	2
Cc1ccc(/C=N/NC(=O)C2=NNC(c3ccccc3)(c3ccccc3)C2)c(O)c1	-7%	-40	-32	1.4	-4
O=C1CCCC(O)=C1C1NCCc2ccccc21 (centres undefined)	4%	-13	1	-1.8	-10
COc1ccc(C2C(C#N)=C(N)OC3=C2C(=O)CCC3)c(OC)c1OC (centres undefined)	1%	-18	4	-0.3	4
CCCCOc1ccc(C(=O)N2CCCCCC2)cc1	-9%	-32	-4	1.4	4
O=C(c1ccccc1Sc1cccc2ccccc12)N1CCOCC1	-1%	-5	0	.	-11
CSc1ccc(N2C(=O)NC3(CCCCC3)C2=O)cc1	-9%	-13	2	-2.2	-5
Cc1ccc2c(c1)N(C(=O)CCC(=O)Nc1ccccc1Br)CC(C)O2 (centres undefined)	.	.	.	2.0	-2
O=C(Nc1ccccc1-c1ccccc1)NC1CCN(CC(=O)N2CCOCC2)CC1	-1%	-17	6	0.4	-2
O=C1CCC([N+](=O)[O-])C(c2ccc(Cl)c([N+](=O)[O-])c2)N1 (centres undefined)	1%	.	2	-2.3	-3
O=C(/C=C/c1cccc(C(F)(F)F)c1)Nc1cccc(C(F)(F)F)c1	?	-22	-31	4.9	97
O=C(CN1C(=O)c2ccccc2C1=O)c1ccc(F)cc1	.	.	.	-1.0	-2
Cc1cc(C(=O)CSc2nnc(-c3ccc(OC(F)F)cc3)o2)c(C)n1Cc1cccs1	-4%	-22	-3	3.6	2
O=C(CC1COc2ccccc2O1)NCCc1ccccc1 (centres undefined)	2%	-3	4	4.5	-6
CC(=O)c1c(C)[nH]c(C(=O)Nc2ccc(S(=O)(=O)N(C)C)cc2)c1C	5%	.	.	-2.9	-6
S=C(Nc1cccc2ccccc12)NN1CCOCC1	1%	-38	-2	1.6	-13
COc1ccc(CCNC(=O)C2CCCN2S(=O)(=O)c2cccc3nsnc23)cc1OC (centres undefined)	.	.	.	-12	4
Cc1cc(/C=C2\SC(=O)N(CC(=O)Nc3ccccc3F)C2=O)c(C)n1C	-1%	.	-17	-3.5	-3
COc1ccccc1NC(=O)C1=C(C)NC(=O)NC1c1ccco1 (centres undefined)	-6%	.	.	-2.4	-10
Cc1cc(-c2csc(NC(=O)c3ccccc3C(F)(F)F)n2)c(C)n1Cc1ccccc1	-6%	-25	14	2.4	0

Grouped by structure, the entries above containing a Cl atom (ten)
SMILES	Mtb H37Rv	YopH PTP inh	Arbovirus anti	RecA intein inh	Mtb betalactam
COc1ccc(OCc2cc(C(=O)NCC3CCOCC3)no2)c(Cl)c1	.	.	.	3.3	-2
O=C(c1cccs1)c1cn(Cc2ccccc2Cl)c2ccccc12	-8%	-8	1	-4.9	9
O=C(CN1CCN(S(=O)(=O)N2CCOCC2)CC1)Nc1ccc(Cl)c(Cl)c1	.	.	.	-1.7	2
O=C(CCNC(=O)c1ccc(Cl)cc1)Nc1ccc(F)cc1F	20%	-8	0	0.7	19
OC(CNCc1ccc(Cl)cc1)COc1ccccc1 (centres undefined)	.	.	.	1.9	-11
COc1ccc(NC(=O)c2c(C)nn(-c3ccccc3)c2Cl)cc1	.	.	.	-1.4	3
O=C(NC12CC3CC(CC(C3)C1)C2)c1cc(F)c(F)cc1Cl	.	.	.	-1.7	8
CSc1nc(-c2ccccc2)nn1C(=O)c1ccc(Cl)cc1	-6%	-26	6	57*	33
Cn1c(CSCc2ccc(Cl)cc2Cl)n[nH]c1=S	4%	.	-2	-2.0	-4
O=C1CCC([N+](=O)[O-])C(c2ccc(Cl)c([N+](=O)[O-])c2)N1 (centres undefined)	1%	.	2	-2.3	-3

Some of the compounds tested, so the mix of outcomes need not match the whole.
